Beta2AR agonist: activates human beta-2 adrenergic receptor causing internalization; response, % (no concentration beside the values); P07550; Am2.2-beta2AR cells, FAP receptor internalization, flow cytometry; reference of the scale not given here; hit rate 0.43% among 340,000;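 active means response above a set limit, near 3 SD of response in nonfluorescent compounds, cut at about 42% in these data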;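 further: stock transfer was 100 nL into about 11 µL; a reference agonist was the positive control; negative values mostly stem from fluorescent compounds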
Target sequence (P07550 whole entry, looked up): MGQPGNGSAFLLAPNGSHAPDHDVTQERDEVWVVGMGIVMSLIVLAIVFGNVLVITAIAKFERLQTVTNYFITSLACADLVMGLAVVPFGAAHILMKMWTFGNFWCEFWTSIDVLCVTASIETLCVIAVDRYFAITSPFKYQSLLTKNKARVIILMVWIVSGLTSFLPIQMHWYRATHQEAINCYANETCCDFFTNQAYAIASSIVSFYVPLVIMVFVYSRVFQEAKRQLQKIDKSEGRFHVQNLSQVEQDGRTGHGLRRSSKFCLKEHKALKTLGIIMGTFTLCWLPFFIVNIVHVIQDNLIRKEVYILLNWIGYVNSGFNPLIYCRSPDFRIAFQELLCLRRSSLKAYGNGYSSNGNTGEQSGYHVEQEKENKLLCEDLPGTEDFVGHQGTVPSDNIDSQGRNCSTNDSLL
E coli growth: blocks Escherichia coli growth | OD600 absorbance (concentration not given with the values) | AID 1053175 | hit rate 0.21% among 330,000 | OD600, 23 h; hits give low values;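 active means OD600 absorbance below the run mean of sample wells minus 3.6 SD, in any replicate, cut at about 0.56 in these data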;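 further: stock transfer was 300 nL into about 60 µL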
LANA-H2A inh: blocks KSHV LANA binding to histone H2A/H2B | Q9QR71 | cell-free LANA-H2A/H2B peptide, fluorescence polarization | inhibition, % (test concentration not listed) | hit rate 0.6% among 320,000; in the data active means inhibition mostly above about 10%, no sharp cut-off; inactive means mostly below about 6.7%;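 further: stock transfer was 7.5 nL into about 10 µL; 0% = median of vehicle wells and 100% = median of positive control wells; one replicate is shown; the record names a cut of 25% in any replicate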
ALR inh: human ALR oxidase inhibition via reduced H2O2; purified ALR, DTT oxidation, H2O2 HRP-luminol luminescence; inhibition, % (test concentration not listed); AID 485317; hit rate 3.8% among 290,000;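 active means mean and each replicate at 75% or more; inconclusive means only one of the two met; inactive means neither met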;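 further: stock transfer was 7.5 nL into about 7.5 µL; 0% = neutral wells and 100% = wells with inactivated enzyme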
Target sequence (P55789 whole entry, looked up): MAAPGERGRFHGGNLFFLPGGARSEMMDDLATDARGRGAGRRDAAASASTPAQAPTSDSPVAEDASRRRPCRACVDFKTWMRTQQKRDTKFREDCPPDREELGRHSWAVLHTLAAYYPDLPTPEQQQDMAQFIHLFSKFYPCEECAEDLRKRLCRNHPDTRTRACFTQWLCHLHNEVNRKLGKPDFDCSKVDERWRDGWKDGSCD
FGF22 binding: binders of recombinant human FGF22 by thermal shift | Q9HCT0 | SYPRO orange fluorescence; percent of sucrose octasulfate shift, DMSO zero | calls only at 9.99 µM | hit rate 1.5% among 340,000;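 active means melting point raised past a set limit in the mean and every replicate; inconclusive means no clear call; three in four hits are not shown here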
UCH37 inh: blocks the human deubiquitinase UCH37; purified proteasome/UCH37, Ub-AMC cleavage fluorescence; inhibition, % (concentration not given with the values); hit rate 0.33% among 330,000; AID 588478;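 active means mean of two replicates above 20%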;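 further: 0% = compound-free wells with enzyme and 100% = wells lacking proteasome; stock transfer was 100 nL into about 20 µL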
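Material: human UCH37 enzyme supplied as purified proteasome complex / Amount: 0.15 nM proteasome as dispensed / Buffer or medium: pH 7.4 Tris-HCl (50 mM) with ovalbumin, ATP-MgCl2, DTT / Times: preincubation 30 min, reaction 25 min, room temperature / Technique: AMC fluorescence from Ub-AMC cleavage, excitation 355 nm, emission 460 nm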
HNF4A DNA FP: change in binding of human HNF4 alpha to DNA. P41235. HNF4a-FITC DNA binding, fluorescence polarization, 1 h. activity change, % at 10 µM. hit rate 0.3% among 360,000; in the data active means activity change above about 30%, passing the limit was not always enough;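 further: controls were the assay level and a saturating level of protein; the project sought stronger binding though the title names inhibitors; some compounds called inactive have numbers as strong as hits; positive values seem to mean higher polarization but the record does not say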
Target sequence (P41235 whole entry, looked up): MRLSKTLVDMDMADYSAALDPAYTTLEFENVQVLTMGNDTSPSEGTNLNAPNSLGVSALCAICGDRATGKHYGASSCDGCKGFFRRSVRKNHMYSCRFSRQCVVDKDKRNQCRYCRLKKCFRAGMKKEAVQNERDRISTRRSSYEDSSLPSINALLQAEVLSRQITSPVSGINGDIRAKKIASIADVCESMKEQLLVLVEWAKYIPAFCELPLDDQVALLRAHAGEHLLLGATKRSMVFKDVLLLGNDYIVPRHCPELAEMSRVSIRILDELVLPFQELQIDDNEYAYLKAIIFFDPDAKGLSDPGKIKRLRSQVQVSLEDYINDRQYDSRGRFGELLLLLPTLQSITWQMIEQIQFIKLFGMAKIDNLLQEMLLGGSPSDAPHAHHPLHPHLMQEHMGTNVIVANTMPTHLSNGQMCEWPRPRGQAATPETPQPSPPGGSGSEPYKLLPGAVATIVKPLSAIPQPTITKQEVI
* marks the source's active call; other numbers are inactive results; i = inactive; ? = inconclusive; · = no result given. Not all compounds are listed; rates above refer to the full screens.

SMILES	Beta2AR agonist	E coli growth	LANA-H2A inh	ALR inh	FGF22 binding	UCH37 inh	HNF4A DNA FP
OCC1(CCc2ccccc2)CCN(Cc2c(F)ccc(F)c2F)CC1	6.7	0.705	3.3	-0.9	i	2.7	-3.9
COC(=O)CCC(=O)OC1(C)C(=O)C=C2C=C(C3CC3)N(C3CCCCC3)C=C2C1=O (centres undefined)	-10.8	0.708	-1.1	·	i	4.0	-0.1
CCOC(=O)c1[nH]c2ccc(OC)cc2c1NC(=O)CN1CCC2(CC1)OCCO2	2.2	0.667	-1.2	10.4	·	-148.9	1.4
CC(=O)c1sc(NCc2ccc(C)cc2)nc1C	-9.2	0.635	-6.6	-3.7	i	5.2	-0.6
Cn1c(O)c(N=Nc2ccc(F)cc2)c2ccccc21	-9.6	0.729	0.1	-2.1	·	2.5	2.5
COC(=O)CC(c1ccc(OC)c(OC)c1)c1ccc(OC)c(OC)c1	-1.5	0.73	-13.3	-1.6	i	0.5	1.6
O=C(Cc1ccc(Cl)c(Cl)c1)NNC(=S)NCC1CCCO1 (centres undefined)	-6.7	0.671	2.3	27.1	·	1.6	0.7
Cn1c(=O)[nH]c(=O)c2c1nc(SCC(N)=O)n2Cc1cccc(Br)c1	-3.2	0.689	2.3	-15.6	i	3.1	-0.2
S=c1nc(-c2ccc(Br)cc2)oc2c1CCCC2	6.9	·	-0.1	·	·	·	-4.5
O=C(CCCCCN1C(=O)CCC1=O)Nc1ccc2c(c1)OCCO2	-1.7	0.787	-0.5	-11.7	·	2.6	4.6
O=C(NC1CCCCC1)C(c1ccccc1F)N(C(=O)c1csnn1)C1CCCC1 (centres undefined)	3.6	0.671	3.0	-28.4	i	3.6	1.6
O=C(NCc1ccco1)c1ccc(-c2cccc(Cl)c2)o1	10.7	0.702	-2.4	-2.7	i	2.3	0.3
Cn1c(C(=O)NC2CCCCC2)cc2c(=O)n3ccccc3nc21	1.6	0.69	2.2	-1.9	i	i	2.3
O=C(CNC1CCCC1)Nc1cc(Cl)ccc1[N+](=O)[O-]	-3.0	0.637	-20.6	-11.4	i	4.2	-1.6
O=C(Nc1ccc(F)cc1)Nc1cc(S(=O)(=O)N2CCOCC2)ccc1N1CCCC1	-1.4	0.702	-3.5	0.8	i	2.9	1.4
CCC1CCCCN1C(=O)c1ccc(OC2CCN(C(=O)COC)CC2)cc1 (centres undefined)	-4.3	·	-32.9	-10.4	i	·	2.0
CCSc1nnc(-c2cnn(-c3ccccc3)c2-n2cccc2)n1C	14.2	0.754	-3.4	-6.3	·	4.2	2.0
Cc1cc(C)c2c(c1)/C(=N/NS(=O)(=O)c1ccc(Br)cc1)CCC2	1.5	·	4.1	-8.0	·	·	-0.6
O=C(CN1C(=O)/C(=C/c2ccccc2F)Oc2ccccc21)N1CCN(c2ccccn2)CC1	4.8	0.709	-1.0	10.7	·	i	1.9
COc1ccccc1CC(=O)OC(C)C(=O)Nc1ccc(S(=O)(=O)N2CCCCC2)cc1 (centres undefined)	-1.4	0.678	-2.8	·	i	-0.7	0.9
O=Nc1c2nc3ccccc3n(O)c-2c2ccccc12	1.4	0.565	-2.2	-23.1	·	5.5	1.8
CC1(C)C[C@H](O)[C@@]23C[C@@H](OC2=O)[C@]2(C)C(=CCC4[C@@]5(C)CC[C@H](O)C(C)(C)C5CC[C@]42C)[C@@H]3C1 (some centres undefined)	·	0.755	-4.1	-6.5	·	1.5	·
C=Cc1ccc(C(=O)N2CCCC(CCC(=O)N3CCN(c4ccccn4)CC3)C2)cc1 (centres undefined)	-7.3	0.748	-1.0	5.7	i	6.5	-27.1
CC(=O)NC(CCS(C)(=O)=O)C(=O)Nc1cc(Cl)ccc1Cl (centres undefined)	-36.4	0.794	10.9	-35.0	i	3.9	0.0
O=C(Cc1ccccc1)NN=Cc1ccccc1	-4.3	0.699	·	·	i	2.9	2.7

Next part; the last two above are carried over.
SMILES	Beta2AR agonist	E coli growth	LANA-H2A inh	ALR inh	FGF22 binding	UCH37 inh	HNF4A DNA FP
CC(=O)NC(CCS(C)(=O)=O)C(=O)Nc1cc(Cl)ccc1Cl (centres undefined)	-36.4	0.794	10.9	-35.0	i	3.9	0.0
O=C(Cc1ccccc1)NN=Cc1ccccc1	-4.3	0.699	·	·	i	2.9	2.7
CCOc1ccc(C(=O)NCC(=O)OCc2cc([N+](=O)[O-])cc3c2OCOC3)cc1OCC	-0.6	0.693	1.1	5.2	i	0.3	2.9
CCc1ccc(NS(=O)(=O)c2cccc3nsnc23)cc1	0.1	0.625	1.0	1.9	i	2.2	3.1
Cc1ccc(-c2noc(CN(C)C(=O)c3ccoc3C)n2)cc1	1.0	0.653	-13.9	·	i	0.0	-2.4
CCNC(=S)NNC(=O)c1cc(-c2cccc(OCC)c2)nc2ccccc12	3.7	0.742	-2.9	27.5	·	2.5	3.8
COc1ccc(OC)c(N(CC(=O)NCCSCc2ccco2)S(=O)(=O)c2ccccc2)c1	3.6	0.669	0.9	-4.9	i	3.0	-0.5
CCCCn1c(N)c(N(C)C(=O)c2ccc(OCC3CCCO3)cc2)c(=O)[nH]c1=O (centres undefined)	15.0	0.695	·	·	i	-1.1	2.3
COc1ccc(COC(=O)N/N=C(\C)CC(=O)Nc2ccc(Cl)cc2)cc1	3.4	·	-3.5	-4.1	i	·	-2.9
O=C(COc1ccccc1)NNC(=O)COc1ccc([N+](=O)[O-])cc1	-4.2	0.71	-3.2	-0.4	i	3.3	-2.8
COc1ccc(NC(=S)N2CCC(C(=O)c3ccc(F)cc3)CC2)cc1	-0.8	0.673	·	·	i	5.4	0.9
O=C(NC(=O)c1ccccc1)Nc1cccc(S(=O)(=O)N2CCCCC2)c1	-8.1	0.714	0.4	-7.6	i	1.1	1.1
O=C(Nc1nc2c(F)cccc2s1)c1ccc([N+](=O)[O-])o1	4.1	0.767	3.5	-5.5	i	4.8	0.3
Cc1cccc(N(CC(=O)NCc2ccc3c(c2)OCO3)C(=O)CCC(=O)Nc2ccccn2)c1C	-18.6	0.698	·	·	·	4.2	0.1
CC12C=CC(=O)C=C1CCC1C3CCC(O)(C(=O)CO)C3(C)CC3OC312 (centres undefined)	0.1	0.669	-6.1	5.5	i	2.8	-2.8
O=C(O)COc1c(-c2ccc(Cl)cc2)oc2ccccc2c1=O	2.4	0.633	2.5	-1.2	i	-6.7	1.1
Cc1cc(=O)oc2cc(OCC(=O)N3CCOCC3)ccc12	1.7	0.681	·	·	·	-18.9	10.9
CCOC(=O)c1nc2sc3c(c2c(=O)[nH]1)CCC(C)C3 (centres undefined)	56.2*	0.714	-10.1	-9.9	i	-413.4	-2.2
Cc1ccc(-c2nc3ccccc3[nH]2)cc1NC(=O)/C=C/c1ccco1	19.2	0.659	-2.0	0.2	·	2.2	-1.0
CCn1c(C(Cc2ccccc2)NC(=O)COC)nc2ccccc21 (centres undefined)	-2.2	0.775	-2.2	16.2	i	2.8	0.5
COC(=O)c1ccc(NS(=O)(=O)c2ccc(-c3cc(C)no3)s2)cc1	-7.6	0.685	-1.4	-1.1	i	3.5	-5.7
N#CCC(=O)NNc1c([N+](=O)[O-])cc(C(F)(F)F)cc1[N+](=O)[O-]	-44.2	0.638	0.1	19.4	i	10.2	1.1
O=C(COC(=O)c1ccc([N+](=O)[O-])cc1Cl)Nc1cccnc1Cl	-3.4	0.618	8.6	-102.6	i	0.7	-2.6
O=C(CC1SC(=Nc2ccc(O)cc2)NC1=O)Nc1ccccc1 (centres undefined)	37.7	0.672	-0.5	24.1	·	3.8	-0.2
C[C@H]1CCC(=O)N([C@H](COc2ccccc2)Cc2ccccc2)CC1	6.3	·	-0.9	-17.1	i	1.7	3.2
Cc1ccc2nc(-c3cccc(NS(C)(=O)=O)c3)cc(-c3ccccc3)c2c1	2.3	0.665	-2.0	0.4	i	4.3	-0.7
CC1CCN(C(=O)CSc2nnc(CN3CCOCC3)n2-c2ccccc2)CC1	-1.2	0.697	-0.3	-13.9	·	4.4	4.1
SMILES	Beta2AR agonist	E coli growth	LANA-H2A inh	ALR inh	FGF22 binding	UCH37 inh	HNF4A DNA FP
CCOC(=O)Cc1c(C)nc2cc(C)nn2c1C	-1.9	0.718	3.1	-30.7	·	-2.2	0.0
COc1ccc2oc(C(=O)OCC(=O)N3CCCCC3)c(C)c2c1	9.1	0.695	-2.6	·	i	-56.9	-0.7
COc1cc2c(cc1NC(=O)CSc1ccccc1)oc1ccccc12	-4.8	0.746	-2.4	-5.0	i	3.7	10.6
c1cncc(CN=C2Nc3ccccc3CS2)c1	-1.4	0.68	3.0	98.1*	i	-1.4	-3.5
CCSc1nnc(NC(=O)[C@@H](NC(=O)c2ccc(C(C)(C)C)cc2)C(C)C)s1	-0.8	0.696	0.5	-3.2	i	3.6	-0.9
Cc1ccc2ccc(C)[n+](CCCS(=O)(=O)[O-])c2c1	-2.2	0.7	13.1	-6.4	i	-14.8	0.3
CCCc1nc(SCC(=O)N2CCCc3ccccc32)c2c(=O)n(C)c(=O)n(C)c2n1	10.7	0.778	-3.9	?	·	2.4	4.1
O=C(NCc1ccncc1)C1CCN(S(=O)(=O)c2ccc(Cl)c(C(F)(F)F)c2)CC1	-6.9	0.709	·	·	i	4.2	8.3
C[C@H]1CCC[C@]2(CC(=O)c3cc(F)ccc3O2)C1	0.6	·	-3.0	-8.0	i	-19.8	-3.6
O=C(COc1cc(F)ccc1[N+](=O)[O-])Nc1ccc(N2CCCCC2)cc1	2.0	0.645	-2.7	17.3	i	1.1	2.6
CCN(CC)CCNC(=O)c1ccc(NC(=O)c2ccc(S(=O)(=O)N3CCCCCC3)cc2)cc1	18.3	0.61	1.5	-15.3	i	3.2	4.1
Cc1coc2c(C)c3oc(=O)c(CCC(=O)NCCCn4ccnc4)c(C)c3cc12	-2.7	0.715	-4.0	5.1	i	-25.2	2.9
Fc1ccc(F)c(NC2=NCCCCC2)c1	-0.7	·	3.3	-0.7	i	·	0.3
CSc1ccccc1Nc1ncnc(N)n1	-0.8	0.667	3.6	-2.9	i	4.2	-2.8
CCCC(=O)N(Cc1cc(=O)[nH]c2ccccc12)c1ccccc1OC	-4.4	0.688	-4.3	9.1	i	5.2	2.0
CC(Oc1ccccc1)C(=O)NC1C(=O)N2C1SC(C)(C)C2C(=O)O (centres undefined)	3.0	0.698	2.8	-4.9	i	1.4	0.4
Cc1csc(NC(=O)c2cccc([N+](=O)[O-])c2C(=O)O)n1	-3.2	0.669	-5.6	-10.8	i	1.7	1.1
Cc1cc(C)c(OCCCn2ccnc2)c(C)c1	-1.8	0.648	3.5	3.7	i	4.3	27.0
CCOc1ccc(CNCc2ccccc2Cl)cc1	3.3	0.676	1.4	-2.5	i	2.3	-1.7
CCOc1ccc(OCC(=O)OCC(=O)N(CC(C)C)c2c(N)n(Cc3ccccc3)c(=O)[nH]c2=O)cc1	-7.6	0.664	0.1	6.3	i	2.8	29.4
O=C(Cn1nnc(-c2cccc(C(F)(F)F)c2)n1)NC1CCCC1	-1.8	0.775	-3.4	-3.6	·	-6.9	0.2
CCCn1c(SCC(=O)Nc2ccc(OC)cc2)nnc1-c1ccncc1	1.6	0.698	0.5	-11.3	·	-2.0	0.2
CC/C(=N\NC(=O)CSCc1ccc(Cl)cc1)c1ccc2c(c1)OCCO2	-0.2	·	3.1	-3.2	·	·	0.4
Cc1ccc(C(=O)NCc2cccs2)cc1S(=O)(=O)N1CCCCC1	-1.9	0.648	-5.1	4.4	i	0.4	-0.7
CCN(CC(=O)NCc1ccc(Cl)cc1)C(=O)COc1ccc(Cl)cc1Br	-0.5	0.61	-2.0	-5.8	i	4.8	0.3
N#CCc1nc2n(n1)Cc1ccccc1-2	1.2	0.695	3.9	-6.6	·	2.1	-1.9
CCOC(=O)c1cnn(-c2nc3c(C)cccc3s2)c1C	-1.6	0.772	-1.4	-3.8	·	-0.4	0.5
O=C(NCc1ccccc1)c1ccc(=O)oc1	3.3	0.623	2.6	-3.9	i	17.7	2.5
CN(C)c1ccc(NC(=O)CC(NCc2ccccn2)C(=O)O)cc1 (centres undefined)	13.4	0.666	-4.4	99.9*	·	2.1	-3.3
